KCNQ2 inh: KCNQ2 channel blockers in CHO-K1 cells – cell-based, FluxOR thallium flux, B-score, primary screen (AID 2156); O88943; 20 min; hits give low values; only compounds with negative scores are shown here; some inactives read as strong as hits; B-score at 10 µM; 1.1% of 310,000 active;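 active = fluorescence ratio B-score at most minus 3 library SDs, with starting brightness B-score within 2 library SDs, cut at about -5.5 in these data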
Target sequence (O88943 whole entry, looked up): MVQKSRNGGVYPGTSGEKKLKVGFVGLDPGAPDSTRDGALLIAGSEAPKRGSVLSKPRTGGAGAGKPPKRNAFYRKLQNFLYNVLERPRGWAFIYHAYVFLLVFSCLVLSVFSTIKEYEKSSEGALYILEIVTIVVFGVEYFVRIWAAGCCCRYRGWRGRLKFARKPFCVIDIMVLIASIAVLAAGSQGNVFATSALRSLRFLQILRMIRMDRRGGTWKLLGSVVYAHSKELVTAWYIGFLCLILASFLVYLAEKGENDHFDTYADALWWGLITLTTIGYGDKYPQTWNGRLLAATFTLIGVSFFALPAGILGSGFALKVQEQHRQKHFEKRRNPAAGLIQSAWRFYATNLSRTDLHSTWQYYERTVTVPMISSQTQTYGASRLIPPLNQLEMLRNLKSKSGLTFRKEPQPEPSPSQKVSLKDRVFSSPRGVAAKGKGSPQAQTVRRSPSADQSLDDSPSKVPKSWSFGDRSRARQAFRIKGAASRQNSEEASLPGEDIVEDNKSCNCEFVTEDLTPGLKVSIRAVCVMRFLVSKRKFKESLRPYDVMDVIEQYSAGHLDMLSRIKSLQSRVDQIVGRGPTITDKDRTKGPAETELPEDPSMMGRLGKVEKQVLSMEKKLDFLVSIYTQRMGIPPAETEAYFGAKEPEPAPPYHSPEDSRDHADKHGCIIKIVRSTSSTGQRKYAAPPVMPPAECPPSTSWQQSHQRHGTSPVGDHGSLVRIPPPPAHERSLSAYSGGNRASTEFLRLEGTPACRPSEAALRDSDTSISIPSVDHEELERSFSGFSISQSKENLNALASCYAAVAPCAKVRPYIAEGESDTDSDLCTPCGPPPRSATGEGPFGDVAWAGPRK
KCNQ2 inh baseline: also measured in KCNQ2 inh; calls as there; B-score; measured here: initial fluorescence intensity artifact check;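 brightness before thallium and not channel activity; 0 = typical well and far values either way flag optical interference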
* hit, by the source's call; i = inactive. An excerpt (hit frequency here may not be typical).

No.	compound	KCNQ2 inh	KCNQ2 inh baseline
1	COc1cc(/C=N/NC(=O)CNC(=O)c2ccco2)ccc1O	i	-1
2	Cc1ccc(-n2nc3cc(Cl)c(NC(=O)c4ccco4)cc3n2)cc1	i	0.91
3	COc1ccc(N2CC(C(=O)NCCC3=CCCCC3)CC2=O)c(OC)c1 (configuration not stated)	i	1.22
4	O=C(C1CCCN(c2ncnc3c2nc2n3CCCCC2)C1)N1CCN(c2ccccc2)CC1 (configuration not stated)	i	0.66
5	CCOc1cccc(-c2cc(-c3n[nH]c(=S)n3CC)c3ccccc3n2)c1	i	1.58
6	CCCc1cc(C(=O)Nc2ccc(F)c(Cl)c2)no1	i	-0.54
7	CCOC(=O)N1CCN(C(=O)/C(=C/c2ccccc2OC)NC(=O)c2ccccc2)CC1	i	1.8
8	CCN(CC(=O)Nc1c(F)cccc1F)C(=O)CCN1C(=O)C2CC=CCC2C1=O (configuration not stated)	i	0.88
9	O=C(NCCc1ccc(Cl)cc1)C1CCCN(c2ncnc3c2nc2n3CCCCC2)C1 (configuration not stated)	i	2.19
10	C=CCOc1ccc(/C=C/C(C)=N\O)cc1	i	-1.07
11	O=C(CSCc1c(Cl)cccc1Cl)NCc1cccnc1	i	0.03
12	Clc1ccc(CN(Cc2ccc(Cl)cc2)c2nn[nH]n2)cc1	i	0.08
13	O=S(=O)(O)c1nnc2sc3ccccc3n12	i	-1.24
14	COc1ccc(NC(=O)COC(=O)c2ccncc2)c(OC)c1	i	0.51
15	COc1ccc(C(=O)Nc2nc3ccccc3[nH]2)cc1S(=O)(=O)N1CCOCC1	i	-0.73
16	Cc1nc2ccccc2n1Cc1n[nH]c(=S)n1-c1ccc(Cl)cc1	i	0.81
17	CNC(=O)c1cc(Cl)c(OC)c(OC)c1	i	-0.93
18	Cc1ccc(NC(=O)CSc2nnc(-c3ccoc3C)n2CCCN(C)C)cc1Cl	i	-0.52
19	Cc1cc2nc(Sc3c([N+](=O)[O-])nc(C)n3Cc3ccccc3)[nH]c2cc1C	i	-0.05
20	CCOc1ccc(C(C)(C)C)cc1S(=O)(=O)N1CC(C)OC(C)C1 (configuration not stated)	i	-1.54
21	Oc1ccc2ccccc2c1/C=N/Nc1nnc(-c2ncc[nH]2)c2ccccc12	i	1.08
22	Cc1ccc(C)c(S(=O)(=O)Nc2ccc3sc(C)nc3c2)c1	i	0.39
23	O=C(COc1ccc(S(=O)(=O)NC2CCCCC2)cc1)NCC1CCCO1 (configuration not stated)	i	1.4
24	COc1cccc(N(CC(=O)N2CCN(c3ccccc3OC)CC2)S(C)(=O)=O)c1	i	-1.23
25	CC(C)CN(C(=O)c1ccc(S(=O)(=O)N2CCOCC2)cc1)C1CCS(=O)(=O)C1 (configuration not stated)	i	1.7
26	CC(C)OCCCNC(=O)c1ccc(NS(C)(=O)=O)cc1	i	-0.05
27	COc1cc(SC)ccc1C(=O)Nc1ccc(S(=O)(=O)N2CCCC2)cc1	i	0.1
28	Cc1cccc(N2CCN(Cc3nc(-c4ccccc4Cl)oc3C)CC2)n1	i	0.35
29	CCOC(=O)Cc1c(C)c2c(C)nn(-c3ccccc3)c2oc1=O	i	1.18
30	Cc1ccc(C(=O)N(CCCN(C)C)c2nc3ccc(Cl)cc3s2)cc1C	i	-0.04
31	O=C(N=c1ccn(-c2nc3ccccc3nc2NS(=O)(=O)c2ccc(Cl)cc2)cc1)c1cccs1	i	0.1
32	CCCOC1CCCN(Cc2nc(-c3ccc(C(=O)OC)cc3)no2)C1 (configuration not stated)	i	0.14
33	COc1ccc(-n2c(C)cc(C(=O)COc3ccc(C)nc3[N+](=O)[O-])c2C)cc1	i	-0.62
34	COC(=O)c1ccc(OC(=O)c2ccncc2)cc1O	i	-2.29
35	COc1cc(NC(=O)c2ccc(C(=O)c3ccccc3)cc2)cc(OC)c1OC	i	-0.4
36	COc1ccc(OC)c(/C=N\NC(=O)c2ccc(COc3ccc(C)cc3[N+](=O)[O-])o2)c1	i	-0.03
37	O=C1C=C(Nc2ccc(O)cc2)CC(c2ccco2)C1 (configuration not stated)	i	-0.15
38	CSc1ccc(S(=O)(=O)Nc2ccc3c4c(cccc24)CC3)cc1	i	1.59
39	Cc1cc(C)c2nc(-c3ccccn3)cc(C(=O)n3cccn3)c2c1	i	2.44
40	O=C(C1CCCN(S(=O)(=O)c2cnc[nH]2)C1)N1CCN(Cc2ccccc2)CC1 (configuration not stated)	i	0.02
41	Cc1cc(NC(=O)c2ccccc2Cl)c(C(C)C)cc1O	i	-0.35
42	O=C(Nc1nnc(-c2cccnc2)o1)c1cccc(Cl)c1	i	-0.39
43	O=C(NC(=S)Nn1cnnc1)c1ccccc1	i	2.08
44	Cc1nc2sc3c(c2c(=O)o1)CC(C)(C)OC3	i	0.37
45	CC1Cc2ccccc2N1C(=O)CSc1nc2ccccc2o1 (configuration not stated)	i	1.24

Whole records as entered above. Values in the order: KCNQ2 inh | KCNQ2 inh baseline
`O=C1C=C(Nc2ccc(O)cc2)CC(c2ccco2)C1` (configuration not stated) in the list: i | -0.15
`O=C(Nc1nnc(-c2cccnc2)o1)c1cccc(Cl)c1` in the list: i | -0.39
`Cc1cc(C)c2nc(-c3ccccn3)cc(C(=O)n3cccn3)c2c1` in the list: i | 2.44
`COc1ccc(OC)c(/C=N\NC(=O)c2ccc(COc3ccc(C)cc3[N+](=O)[O-])o2)c1` in the list: i | -0.03
`COc1ccc(-n2c(C)cc(C(=O)COc3ccc(C)nc3[N+](=O)[O-])c2C)cc1` in the list: i | -0.62

Other compounds
No.	compound	KCNQ2 inh	KCNQ2 inh baseline
46	O=C(c1ccc(=O)[nH]c1)N(Cc1cccs1)C1(C(=O)NC2CCCC2)CCCCC1	i	-0.85
47	C=CCNC(=S)NNC(=O)c1ccc(C)c(Cl)c1	i	-1.89
48	CC(C)CN1CCCC(N2CCN(c3cccc(Cl)c3)CC2)C1 (configuration not stated)	i	-0.28
49	COC(=O)c1ccc(C2=NOC(C)(c3sc(-c4ccccc4)nc3C)C2)cc1 (configuration not stated)	i	-0.14
50	Cc1onc(-c2ccc(Cl)cc2)c1-c1ccnc(SCC(=O)Nc2ccc(C(C)C)cc2)n1	-5.59*	-0.91*
51	Cc1ccc(CNC(=O)c2nnn(CC(=O)Nc3cccc(C)c3C)c2N)cc1	i	-1.02
52	COc1ccc(NC(=O)CN2CCN(c3ccccc3C)CC2)cc1	i	-0.65
53	Cc1cc(C)c(S(=O)(=O)N2CCOC2CNC(=O)C(=O)NCCCn2ccnc2)c(C)c1 (configuration not stated)	i	2.67
54	CCOc1nc(-c2ccc(OC)cc2)ccc1-c1noc(C)n1	i	0.08
55	Cc1c(Nc2ncnc3c2cnn3-c2ccccc2)c(=O)n(-c2ccccc2)n1C	i	-0.67
56	COCCNC(=O)c1onc(CSc2ccc(C)c(C)c2)c1C(=O)O	i	0.7
57	CCCCCCNc1c([N+](=O)[O-])c(=O)sc2ccccc12	i	-0.21
58	COc1ccc(-c2nc(CSCC(=O)NCCCN3CCCC3=O)c(C)o2)cc1OC	i	-1.25
59	COCCCNC(=O)/C(C#N)=C/c1c(N2CCN(c3ccccc3)CC2)nc2c(C)cccn2c1=O	i	-0.66
60	O=C(NCC1CCN(Cc2ccc(Cl)cc2)CC1)C1CCCN(c2ncnc3c2nc2n3CCCCC2)C1 (configuration not stated)	-6.57*	-0.46*
61	CN1CCN(c2ccc(S(=O)(=O)N3CCCCC3)cc2NC(=O)/C=C/c2ccc(OC(F)F)cc2)CC1	i	-1.31
62	CCCOc1ccc(-c2cc(C(=O)NCC3CCCO3)c3ccccc3n2)cc1 (configuration not stated)	i	1.03
63	COCCn1c(N)c(C(=O)NCC2CCCO2)c2nc3ccccc3nc21 (configuration not stated)	i	-0.01
64	N#CC(C#N)=c1ccc2c(c1)N1C3=C(CCCC3)CC3CCCCC31N=2 (configuration not stated)	i	0.02
65	Cc1ccc(CNC(=O)C2CCN(S(=O)(=O)c3c(C)noc3C)CC2)cc1	i	2.82
66	O=C(N/N=C/c1cc([N+](=O)[O-])ccc1N1CCNCC1)c1ccc([N+](=O)[O-])cc1	i	1.62
67	CCCS(=O)(=O)c1nc(S(=O)(=O)c2ccc(C)cc2)c(N2CCC(C)CC2)s1	i	0.51
68	O=C(NC12CC3CC(CC(C3)C1)C2)c1ccc(-c2ccc(Br)cc2)o1	i	2.07
69	O=C(CCC1CCCN(C(=O)C2CCCC2)C1)NCc1ccc(F)c(F)c1 (configuration not stated)	i	0.05
70	CCNc1nc(NCC)n2c(SCC(=O)Nc3ccc(Br)cc3F)nnc2n1	i	0.88
71	O=C1/C(=C\c2ccc(O)c(O)c2)C(c2ccccc2)=NN1c1ccccc1	i	-0.79
72	Cc1ccc(NC(=O)NC2CCCc3ccccc32)cc1 (configuration not stated)	-5.78*	0.06*
73	CN(C)S(=O)(=O)N1CCN(c2ccc([N+](=O)[O-])c(N3CCCCC3)c2)CC1	i	-1.45
74	OCCC1CN(Cc2cn[nH]c2C2CCCCC2)CCN1C1CCCCC1 (configuration not stated)	i	0.03
75	Cc1cc(-c2nn(-c3ccccc3F)cc2CNCCc2cnccn2)c(C)s1	i	0.1
76	Cc1c(C(=O)Nc2ccc3c(c2)OCO3)oc2ccccc12	i	-0.37
77	CCC(C(=O)Nc1ccc(S(=O)(=O)Nc2ncccn2)cc1)c1ccccc1 (configuration not stated)	i	0.05
78	COc1cccc(NC(=O)N2CCCC2C(=O)NCc2ccccc2)c1 (configuration not stated)	i	-0.36
79	O=C1c2ccccc2NC(c2ccccc2O)N1O (configuration not stated)	i	0.56
80	COc1ccc(Cl)cc1C(=O)Nc1ccccc1N1CCN(C(=O)C(C)C)CC1	i	0.99
81	CCc1ccccc1Nc1nc2ccccc2n1C(C)C	i	0.03
82	COC/C=C/C1=CC2=CC(=O)C(C)(OC(=O)c3cnc4ccccc4n3)C(=O)C2=CN1CC(C)C (configuration not stated)	i	-0.21
83	O=C(O)C1=C[C@H](c2ccc(F)cc2)C[C@H](OCCCCO)O1	i	-0.29
84	COc1ccc(/C=N/S(=O)(=O)CCc2ccccc2)c(OC)c1	i	0.09
85	COCC1CCN(C(=O)C2CCN(c3nc(-c4ccccc4)nc4c3CCC4)CC2)C1 (configuration not stated)	i	0.01
86	O=C(NCc1ccc(Cl)cc1)c1ccc(CS(=O)Cc2cccc(Cl)c2)o1 (configuration not stated)	i	-0.03
87	Cc1cc(Cl)ccc1C(=O)C1CCCN(C(=O)c2ccoc2)C1 (configuration not stated)	i	0.03
88	O=C(Cn1c(=O)oc2ccccc21)N1CCN(c2ccc(N3CCOCC3)nn2)CC1	i	0.97
89	Brc1ccccc1OCCOCCOc1cccc2cccnc12	i	-0.66
90	COc1ccccc1N1C(N)=NC(N)=NC12CCCCC2	i	2.62
91	CC1=C(C(=O)OCc2ccc3c(c2)OCO3)C(c2ccc(Cl)cc2)NC(=O)N1 (configuration not stated)	i	-0.33
92	CCn1cc(C(=O)Nc2ccc(Cl)cc2Cl)cn1	i	-1.34
93	CCNC(=O)C(=O)N1CCC2(CC1)OCCN2S(=O)(=O)c1ccc(C)cc1	i	0.06
94	O=C(OCc1cccc(Cl)c1)c1cc([N+](=O)[O-])ccc1N1CCOCC1	i	2.55
95	CCC(=O)Oc1ccc(C(=O)Nc2ccc3c(c2)OCO3)cc1	i	-0.47
96	COc1ccccc1NC(=O)CCCN1C(=O)C(c2ccccc2)Oc2cccnc21 (configuration not stated)	i	-1.16
97	Cc1c(Br)c(=O)oc2c(Br)c(O)ccc12	i	-0.27
98	C=CCN(c1ccccc1)S(=O)(=O)c1ccc2[nH]cc(C(=O)NCCOC)c(=O)c2c1	i	-0.46
99	Cc1ccc(Oc2ncnc3sccc23)cc1	i	0.68
100	Cc1cccc(OCCC(=O)OCC(=O)N2CCc3ccccc32)c1	i	1.03
101	Cc1cc([N+](=O)[O-])nn1CC(=O)N1CCOCC1	i	-1.14
102	COc1ccc(-c2cc3nc(C4CCN(C(=O)OC(C)(C)C)CC4)c(C(=O)O)cn3n2)cc1	i	-1.03
103	CC1(C)C(CSc2nc3ccccc3[nH]2)C1(Cl)Cl (configuration not stated)	i	-0.29
104	COc1ccccc1NC(=O)COc1ccc(/C=N/NC(=O)c2cccnc2)cc1	i	0.67
105	COc1ccc(S(=O)(=O)N(CC(=O)NCCCN(C)C)c2ccc(C)cc2)cc1OC	i	0.44

Continuation:
No.	compound	KCNQ2 inh	KCNQ2 inh baseline
106	CC(C)c1ccc2c(c1)C(=O)NC(C)(C)C2	i	-0.41
107	Cc1cc(C)n2nc(S(=O)(=O)NC(C)(C)C)nc2n1	i	2.87
108	CC(C)Sc1nc2ccccc2n1CC(=O)O	i	-0.11
109	c1ccc(CNc2ncnc3c2cnn3-c2ccccc2)cc1	i	0.66
110	Nc1nc(CSc2nc3ccccc3s2)nc(N2CCCCC2)n1	i	1.49
111	C=C(C)COc1ccc2c(C)c(C)c(=O)oc2c1OCC(=C)C	i	0.06
112	CC(=O)N1CCN(Cc2nc3cc(NC(=O)NC4CCCCC4)ccc3n2C)CC1	i	3.23
113	COc1ccc2oc(C(=O)OCc3nnc(-c4ccccc4)o3)c(C)c2c1	i	0.23
114	O=C(NC1c2ccccc2-c2ccccc21)N1CCCCC1	-6.76*	-1.48*
115	S=c1nccc(-c2ccc(Cl)cc2)[nH]1	i	-1.09
116	COC(=O)c1ccc(N(CC(=O)NC2CCCC2)C(=O)CNC(=O)c2ccco2)cc1	i	-0.8
117	N=c1c2c(n(Cc3ccc(Cl)cc3)c3c1CCC3)CCC2	i	1.14
118	O=[N+]([O-])c1cc2c(cc1CN1CCN(c3ccccc3F)CC1)OCO2	i	0.67

Retrieved by compound from above:
No.	compound	KCNQ2 inh	KCNQ2 inh baseline
64	N#CC(C#N)=c1ccc2c(c1)N1C3=C(CCCC3)CC3CCCCC31N=2 (configuration not stated)	i	0.02
7	CCOC(=O)N1CCN(C(=O)/C(=C/c2ccccc2OC)NC(=O)c2ccccc2)CC1	i	1.8
25	CC(C)CN(C(=O)c1ccc(S(=O)(=O)N2CCOCC2)cc1)C1CCS(=O)(=O)C1 (configuration not stated)	i	1.7

Screening results deposited in PubChem BioAssay by Johns Hopkins Ion Channel Center.
